VACV Venus inh – vaccinia inhibition (Venus reporter). Potency, µM (series often up to 36.5 µM), for inactives: at the top dose activity change, negative = inhibition, usual class: inhibitors. Vaccinia virus Venus reporter expression, fluorescence. AID 720580. 330,000 compounds, 0.46% hits; active means well fitted inhibition curve with a large enough effect; inconclusive means small, poorly fitted or top-dose-only effect; inactive means no such curve, though single readings can be large or run the other way; tested in A549 cells; further: nearly all actives have a fitted effect of over 30% in size; inactives centre near -10
Vaccinia mCherry – vaccinia inhibition (mCherry reporter) | Vaccinia virus mCherry reporter infection, fluorescence; about a quarter of the inactives have no number | Potency, µM (highest dose often 36.5 µM), for inactives: top-dose activity change, negative = inhibition, actives largely listed as inhibitors | 310,000 compounds, 0.63% hits; active = well fitted inhibition curve with a large enough effect; inconclusive = small, poorly fitted or top-dose-only effect; inactive = no such curve, though single readings can be large or run the other way; tested in A549 cells; further: nearly all actives have a fitted effect of over 35% in size; inactives centre near -10
Numbers without * were called inactive; i = inactive; ? = inconclusive; / = no result given; & = joins results of further samples. On the % scale 0 is the no-effect control and ±100 the full control effect; potency means the concentration at half of the fitted maximal effect.

no.	smiles	Vaccinia mCherry	VACV Venus inh
1	O=C(Nc1ccc(C(=O)N2CCOCC2)cc1)c1cccc([N+](=O)[O-])c1	-29.8%	-16.3%
2	O=C(CSc1ccc(-c2ccco2)nn1)Nc1cccc(F)c1	-23.5%	-18.6%
3	O=c1cc(-c2ccc(O)c(O)c2)oc2c(C3O[C@H](CO)[C@@H](O)[C@H](O)[C@H]3O)c(O)cc(O)c12 (stereo partly drawn)	i	-6.0%
4	Cc1ccc(S(=O)(=O)Nc2c(O)ccc3ccccc23)cc1	?	6.9%
5	O=C(NCCc1cn2ccsc2n1)C1CCCCC1	-6.4%	17.7%
6	COc1ccc(C2(c3ccc(OC)cc3)NC(=O)N(CC(=O)NCC(F)(F)F)C2=O)cc1	10.2%	-0.8%
7	O=C(CSC1=NNC(c2ccccn2)S1)Nc1ccc(C(F)(F)F)cc1 (stereo not drawn)	?	?
8	O=C(NCC1CC1)C1Cc2c(-c3ccc4c(c3)OCO4)ccnc2O1 (stereo not drawn)	?	-21.7%
9	Cc1cccc(C)c1NC(=O)C(NC=O)c1ccc(N(C)C)cc1 (stereo not drawn)	/	-20.2%
10	COc1cc(/C=C/C(=O)Nc2ccncc2)cc(OC)c1OC	-8.6%	-24.5%
11	CCCCNC(=O)c1cc2cccc([N+](=O)[O-])c2[nH]1	-18.9%	-8.2%
12	O=C(Oc1nsnc1N1CCCCC1)N1CCOCC1	14.1µM*	?
13	CCCc1[nH]nc2c1C(CCc1ccccc1)C(C#N)=C(N)O2 (stereo not drawn)	-13.2%	-13.0%
14	Cc1nn(C2CCS(=O)(=O)C2)c(C)c1CN(C)C(=O)c1ccc(F)cc1 (stereo not drawn)	-21.2%	-20.3%
15	O=C(NCCCN1CCN(c2ccc(F)cc2)CC1)c1cnn(-c2ccc(F)cc2)c1-n1cccc1	-27.9%	-22.0%
16	COc1ccc(/C(O)=C2/C(=O)C(=O)N(CCCC(=O)O)C2c2ccc(OC)c(OC)c2)cc1 (stereo not drawn)	-8.4%	-5.2%
17	CCCn1nnc(NC(=O)c2ccc3ccccc3c2)n1	-6.1%	2.3%
18	O=C1NC(c2ccccc2)=C(c2ccc3ccccc3n2)C(c2ccccc2)N1 (stereo not drawn)	-4.2%	-8.1%
19	Cc1cccc(NC(=O)CCN2CCC(C)CC2)c1	-16.2%	0.7%
20	CCNC(=S)N(Cc1ccc(OC)cc1)C1CC(=O)N(c2ccc(OCC)cc2)C1=O (stereo not drawn)	/	-20.7%
21	Cc1cc(C)cc(OCC(=O)Nc2nc(-c3ccccn3)cs2)c1	?	-12.8%
22	O=Cc1ccccc1OCc1nnsc1Cl	-4.7%	-9.3%
23	Fc1ccc(Oc2cc(N3CCOCC3)nc(-c3ccccc3)n2)c(F)c1	-29.3%	-23.3%
24	CCN(Cc1ccccc1)C(=O)Cn1ncc2c(=O)oc3ccc(C)cc3c21	-6.7%	-5.7%
25	CC(NC(=O)c1cc2c(=O)n(C)c3ccccc3c2n1C)c1ccc2c(c1)OCCO2 (stereo not drawn)	?	?
26	CCCCOC(=O)Nc1ccc(C(C)C)cc1	-19.0%	-12.6%
27	O=C(NCCc1ccccc1)c1coc(=O)c(Br)c1	-27.1%	-21.2%
28	O=C(Cn1cc(S(=O)(=O)Cc2ccccc2F)c2ccccc21)NCc1ccccc1Cl	-12.0%	-0.4%
29	Cc1ccc(CN(Cc2cccn2-c2nnc(N3CCCC3=O)s2)C(=O)Nc2ccc(F)cc2)cc1	-14.3%	-16.7%
30	COc1ccc(NC(C)=O)cc1CNC(=O)COc1c(C)c(C)cc(C)c1C	-7.5%	-13.9%
31	COc1cccc(N(CC(=O)NC2CCCCCC2)S(=O)(=O)c2ccccc2)c1	-7.7%	-7.8%
32	COCCOC(=O)C1=C(C)OC(N)=C(C#N)C1c1ccco1 (stereo not drawn)	-8.8%	-9.2%
33	Cc1sc2ncn(CC(=O)NCc3ccco3)c(=O)c2c1-c1ccccc1	i	3.4%
34	O=C(N/N=C/c1cccnc1)c1cc(-c2ccccc2OCc2ccccc2)n[nH]1	-22.6%	?
35	CC(C)CC(=O)NC(=S)Nc1ccc(CN2CCOCC2)cc1	i	-10.3%
36	O=C(c1ccco1)N1CCN(c2c(-c3ccccc3)c3cc(Cl)ccc3[nH]c2=O)CC1	?	?
37	O=C(c1ccc2ccccc2n1)N1CCN(c2ccccc2O)CC1	/	-10.5%
38	COc1cc(CO)ccc1OCC(=O)Nc1cccc2ccccc12	-1.9%	-10.6%
39	O=C(N/C(=C/c1cccc(Br)c1)C(=O)N1CCCCC1)c1ccco1	i	-14.9%
40	COc1ccc(N2CCN(C(=O)COC(=O)c3oc4ccc(OC)cc4c3C)CC2)cc1	-14.6%	-7.5%
41	C/C(=N\Nc1ccccc1)c1c(O)n(C)c(=O)n(C)c1=O	-18.7%	-8.7%
42	CC(C)NC(=O)C1(C)CCN1C(=O)c1cccc(F)c1 (stereo not drawn)	-13.9%	-0.2%
43	Fc1ccc(Nc2nc3ccccc3n3cnnc23)c(F)c1	i	-7.7%
44	CCCCOC(=O)c1ccc(NC(=O)COC(=O)C2CSC3(C)CCC(=O)N23)cc1 (stereo not drawn)	-1.3%	-11.5%
45	COc1cccc(C(=O)NCc2nc(-c3cccc(NC(=O)c4ccoc4C)c3)oc2C)c1	?	?
46	Cc1nn(CC(=O)N2CCN(c3cccc(C(F)(F)F)c3)CC2)c(=O)c2cccn12	-28.1%&-22.5%	?
47	CC(NC(=O)c1cc(F)c(F)cc1Cl)C1CC2CCC1C2 (stereo not drawn)	-14.8%	6.2%
48	O=C(CO)N/N=C/c1ccccc1F	7.0%	18.8%
49	CCN(CC)c1ccc(/C=N/NC(=O)c2ccoc2C)cc1	-18.9%	-10.0%
50	O=C(Cc1cccs1)N/N=C/c1ccc(OCc2ccccc2)cc1	-24.9%	-22.9%

Reformatted with one line to a screen: entries from further up
(38) COc1cc(CO)ccc1OCC(=O)Nc1cccc2ccccc12
(19) Cc1cccc(NC(=O)CCN2CCC(C)CC2)c1
(43) Fc1ccc(Nc2nc3ccccc3n3cnnc23)c(F)c1
(23) Fc1ccc(Oc2cc(N3CCOCC3)nc(-c3ccccc3)n2)c(F)c1

entry no.	38	19	43	23
Vaccinia mCherry	-1.9%	-16.2%	i	-29.3%
VACV Venus inh	-10.6%	0.7%	-7.7%	-23.3%

Remaining list, next part:
no.	smiles	Vaccinia mCherry	VACV Venus inh
51	CN(C(=O)COC(=O)c1cc(S(=O)(=O)N(C)C)ccc1Cl)C1CCS(=O)(=O)C1 (stereo not drawn)	i	-5.4%
52	Cc1[nH]c2ccccc2c1/C=N/NC(=O)CNC(=O)c1ccco1	i	-14.3%
53	Cc1c(C2=CCN(S(=O)(=O)c3ccc(CC(C)C)cc3)CC2)c2ccccc2n1CC(=O)N1CCCC1	-9.7%	-17.3%
54	COc1cc(NC(=O)Cn2c(=O)n(Cc3ccco3)c(=O)c3oc4ccccc4c32)cc(OC)c1	-16.2%	-10.3%
55	C[C@]12c3[nH]c4ccc(Cl)cc4c3CCN1C(=O)[C@@H](CC(=O)NCc1cccc(C(F)(F)F)c1)C[C@@H]2C(=O)N1CCOCC1	-18.5%	?
56	COc1cccc(NC(=O)Cn2c(-c3nonc3N)nc3ccccc32)c1	11.5%	-0.7%
57	O=S(=O)(Nc1ccc(-c2ccc(N3CCCCC3)nn2)cc1)c1ccc(OC(F)(F)F)cc1	-10.3%	-12.8%
58	COc1ccc(C2CC(=O)Oc3c(C(CCN4CCCC(C)C4)c4ccc(N(C)C)cc4)c(OC)cc(OC)c32)cc1 (stereo not drawn)	?	-10.7%
59	CC(C(=O)Nc1ccccc1Sc1ccccc1)N(c1ccccc1)S(C)(=O)=O (stereo not drawn)	/	-22.9%
60	CCCOC(=O)/C=C/c1c(C)[nH]c(=O)[nH]c1=O	i	-12.3%
61	Cc1ccc(C(=O)Nc2ccccc2N2CCN(C(=O)C(C)C)CC2)cc1C	-13.0%	-10.7%
62	C#CCN(C)CCCOc1ccc(Cl)cc1Cl	-0.3%	-17.6%
63	COc1ccc(NC(C)=O)cc1S(=O)(=O)NC(Cc1ccccc1)C(=O)NC(C)c1ccccn1 (stereo not drawn)	-16.6%	-9.6%
64	O=C(CN1C(=O)c2ccccc2S1(=O)=O)Nc1ccccn1	-10.5%	2.5%
65	CN(C)CCn1c2c(c(SCC(=O)Nc3cccc4ccccc34)nc1=O)CCC2	?	-13.1%
66	O=C(O)c1cccc(NC(=O)c2ccc(S(=O)(=O)c3ccccc3)cc2)c1	i	-8.8%
67	CC(C)C1N(c2ccccc2)C(N)=C(C#N)C1(C#N)C#N (stereo not drawn)	-10.5%	-16.8%
68	COc1ccc(C2CC(c3cc(Br)ccc3F)n3nnnc3N2)cc1 (stereo not drawn)	/	?
69	CC(C)OC(=O)c1c(NC(=O)c2cccc(C(F)(F)F)c2)sc2c1CCCC2	-7.5%	-6.4%
70	O=C(c1cccc(S(=O)(=O)N2CCN(c3ccc(F)cc3)CC2)c1)N1CCCCCCC1	-20.9%	-12.8%
71	C=CCn1c(=NC(=O)CN2C(=O)CCC2=O)sc2cccc(OC)c21	i	-3.5%
72	COCCNc1nc(-c2cc(-c3ccccc3)on2)cc(C(C)C)n1	-7.3%	-15.4%
73	Cc1ccccc1/[N+]([O-])=C/c1ccncc1	i	-13.3%
74	CCC1CCc2c(c3ccccc3[nH]c2=O)O1 (stereo not drawn)	-28.3%	-13.6%
75	CCC(O)CC(C(=O)NNc1ccccc1)C(=O)NNc1ccccc1 (stereo not drawn)	-13.9%	-8.0%
76	Cc1cc(C)c2c(c1)-c1c(ssc1=S)C(C)(C)N2C(=O)CN1C(=O)c2ccccc2C1=O	i	-10.4%
77	O=[N+]([O-])c1ccccc1S(=O)(=O)Nc1ccc(-c2ccc(N3CCCC3)nn2)cc1	-20.1%	-13.6%
78	COc1ccc(Cl)cc1-c1cc(C(=O)Nc2ccc(C)c(NS(C)(=O)=O)c2)[nH]n1	-27.8%	-28.8%
79	Cc1cccc(NC(=O)c2ccc3nc(N4CCOCC4)sc3c2)c1C	i	-2.7%
80	CCCc1ccc(NC(=O)C2CCCN(c3cnccn3)C2)cc1 (stereo not drawn)	0.2%	-1.0%
81	CCCn1c(NCc2cccc(OC)c2O)nc2ccccc21	-25.1%	-15.3%
82	O=C(CSc1nnc(COc2ccc(Cl)cc2)o1)N1CCCCC1	-21.2%	-18.1%
83	O=c1nc2ccc(Cl)cn2c2ccc(S(=O)(=O)N3CCCCC3)cc12	-2.8%	-0.8%
84	Fc1ccc(NC2=NCCCCC2)cc1	-7.3%	-2.6%
85	CC(CC(=O)Nc1ccc2c(c1)OCO2)c1ccccc1 (stereo not drawn)	?	-18.6%
86	Cc1c(NC(=O)c2cnn3c2NC(c2ccco2)CC3C(F)(F)F)c(=O)n(-c2ccccc2)n1C (stereo not drawn)	/	-12.5%
87	Cc1ccc(S(=O)(=O)N2CCN(C(C)C)CC2)cc1	-1.5%	-16.0%
88	O=C(CCNS(=O)(=O)c1ccc(Cl)cc1)N1CCN(c2ccccn2)CC1	-7.8%	2.3%
89	COc1ccc(C(CNC(=O)c2cc(SC)ccc2Cl)N(C)C)cc1 (stereo not drawn)	-13.5%	-5.1%
90	S=C(NC1CCCCCC1)NC1CCCC1	-8.6%	-13.5%
91	O=C(NCc1ccco1)c1ccc2c(c1)N(Cc1ccc(Cl)cc1)C(=O)c1ccccc1S2(=O)=O	-9.9%	-9.9%
92	COc1ccc(OC)c(C(c2c(C)[nH][nH]c2=O)c2c(C)[nH][nH]c2=O)c1	i	-13.6%
93	C=CCNc1nnc(Sc2ncccc2[N+](=O)[O-])s1	10µM*	?
94	CCCNC(=O)c1ccc(C2SCC(=O)N2CCc2ccccc2)cc1 (stereo not drawn)	-23.1%	-16.0%
95	CCCCNc1ccc2nsnc2c1[N+](=O)[O-]	-1.1%	-9.0%
96	CCOC(=O)N1CCc2c(sc3c2c(=O)n(Cc2ccccc2)c(=O)n3CC(=O)Nc2ccccc2F)C1	-16.7%	-14.4%
97	CC1(c2ccc(OC(F)F)cc2)NC(=O)N(CC(=O)Nc2ccccc2)C1=O (stereo not drawn)	-2.6%	-1.4%
98	O=C(/C=C/c1ccccc1)NC(=S)NNS(=O)(=O)c1ccccc1	i	-2.3%
99	COc1ccc(CCN=C(N)NS(=O)(=O)c2ccc(F)cc2)cc1OC	i	-11.2%
100	COc1ccc(-n2ncc3c2CC(C)(C)CC3NC(=O)c2cn[nH]c2)cc1 (stereo not drawn)	-2.7%	1.1%

Remaining list, next part:
no.	smiles	Vaccinia mCherry	VACV Venus inh
101	CC1(C)CC(=O)C2=C(C1)Nc1ccccc1NC2c1cccnc1 (stereo not drawn)	-9.5%	-4.4%
102	CCN(CC)S(=O)(=O)c1cccc(C(=O)N/N=C/c2ccccc2OCC(=O)O)c1	-8.8%	-15.0%
103	S=c1[nH]nc(CCc2ccccc2)n1-c1ccc(Cl)cc1	-7.2%	-16.1%
104	CC(=O)c1c(Nc2ccccc2)sc(C(=O)c2ccccc2)c1C	-13.4%	-18.1%
105	C=CCN1C(=O)C(=O)N(Cc2nc3ccccc3s2)C1=O	i	5.8%
106	CCn1cc(C(=O)N2CCCC2)c(=O)c2cc(S(=O)(=O)N3CC(C)CC(C)C3)ccc21 (stereo not drawn)	-0.3%	-12.7%
107	O=c1c(Cc2ccc(Cl)cc2Cl)c(O)ccn1Cc1ccncc1	-3.2%	-18.3%
108	CCN(CC(=O)NCc1ccc(F)cc1)CC(=O)Nc1ccc(S(=O)(=O)N2CCCC2)cc1	-14.1%	-12.9%

Screens deposited in PubChem BioAssay by National Center for Advancing Translational Sciences (NCATS).
